# VDR inhibitor – inhibitors of human vitamin D receptor; VDR-SRC2-3 peptide fluorescence polarization, 2 h; Potency, µM, for inactives: max response, negative = inhibition, most hits filed as inhibitors; 400,000 compounds, 0.93% hits; active = well fitted inhibition curve with a large enough effect; inconclusive = small, poorly fitted or top-dose-only effect, or another doubt; inactive = no such curve, though single readings can be large or run the other way; note: series mostly up to about 120 µM
# Target sequence (P11473 whole entry, looked up): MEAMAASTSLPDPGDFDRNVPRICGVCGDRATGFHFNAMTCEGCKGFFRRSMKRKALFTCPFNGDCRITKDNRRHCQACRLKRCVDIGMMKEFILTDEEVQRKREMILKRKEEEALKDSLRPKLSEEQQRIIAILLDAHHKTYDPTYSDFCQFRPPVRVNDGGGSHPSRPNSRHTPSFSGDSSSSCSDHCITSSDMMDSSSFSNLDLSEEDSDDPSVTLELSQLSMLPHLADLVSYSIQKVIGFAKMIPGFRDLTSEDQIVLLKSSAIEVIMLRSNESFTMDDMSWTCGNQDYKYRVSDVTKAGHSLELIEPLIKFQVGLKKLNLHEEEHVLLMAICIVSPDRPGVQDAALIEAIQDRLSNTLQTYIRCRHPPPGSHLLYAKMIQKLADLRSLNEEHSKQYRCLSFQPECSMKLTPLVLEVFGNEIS
#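 Measured by FP: displacement of SRC2-3 coactivator peptide from VDR by library compounds, following a two-hour ambient incubation.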
# * hit, by the source's call; ? = inconclusive; & = joins results of further samples; [ ] = another dose, or the depositor's remark. % is set by controls: 0 for no effect and ±100 for the full control effect; potency is the fitted concentration of half-maximal effect. The list is partial; rates above refer to the full screens.
SMILES,VDR inhibitor
CC(C)Cn1c(SCC(=O)Nc2cc(Cl)c(Cl)cc2Cl)nc(O)cc1=O,-8%
CC(=O)Oc1ccc2ccc3ccc(C(C)=O)cc3c2c1,3%
CC(=O)c1ccc(OCCCC(=O)Nc2cc(S(=O)(=O)N3CCCCC3)ccc2C)cc1,21%
Cc1ccc(C)c(NC(=O)CN(C)C(=O)CC2OC(=O)c3ccccc32)c1 (stereo not given),-20%
CCCNC(=O)CSc1nccn1Cc1ccc(OC)cc1,7%
COc1ccc(C(=O)Nc2nc(C)cs2)cc1S(=O)(=O)N1CCCC1,2%
CCOC(=O)c1sc(Nc2ccc(F)cc2)nc1C,6%
S=C(NC1CCCCC1)NC1CC2C=CC1C2 (stereo not given),-13%
Cc1cc2c(cc1S(=O)(=O)NCc1ccccc1)OCC(=O)N2,8%&9%
CN(Cc1ccccc1)C(=O)c1cccc(NC(=O)Cc2ccc(NC(=O)C3CCCN(C(=O)C4CCC4)C3)cc2)c1 (stereo not given),3%
Cc1ccc(C(=O)N/C(=C\c2cccs2)C(=O)NCCCN2CCOCC2)cc1,-5%
Cc1c(C(c2cccs2)c2c(C)n(C)n(-c3ccccc3)c2=O)c(=O)n(-c2ccccc2)n1C,-17%
CC(Oc1ccc(Cl)cc1Cl)C(=O)NC(=S)N1CCc2ccccc21 (stereo not given),-2%
Cc1ccc2c(cnn2C(=O)CCCC(=O)NCc2ccc(Cl)cc2)c1,-7%
Cc1nnc(SCc2cccc([N+](=O)[O-])c2)[nH]c1=O,14%
Cc1ccc2c(COC(=O)C3=COCCO3)cc(=O)oc2c1,-7%
CCc1nc(SCC(=O)NC2CCCC2)c2c(=O)n(C)c(=O)n(C)c2n1,-15%
COc1ccc(CNc2nc3c(c(=O)[nH]c(=O)n3C)n2Cc2ccccc2C)cc1,-18%
Cc1ccc(N(NC(=O)C(C)(C)O)C(=O)c2ccccc2)cc1C,6%
O=C(CSc1nc2ccccc2o1)c1cc2ccccc2oc1=O,49%[activator]
O=S(=O)(c1ccc(NC(=S)Nc2ccc(OC(F)F)cc2)cc1)N1CCOCC1,-16%
CCCCNc1sc(S(=O)(=O)CC)nc1S(=O)(=O)c1ccc(C)cc1,6%
Cc1oc(-c2ccccc2)cc1C(=O)Nc1cccc(/C=C\C(=O)O)c1,-3%
Cc1ccc2c(c1)=C(c1ccccc1)N(O)CC(=O)N=2,-10%
O=C(Nc1ccnn1C1CCN(Cc2cccc(OCCO)c2)CC1)C1CC1,9%
COc1ccc(C2/C=C\CN(S(=O)(=O)c3ccc(-c4ccccc4)cc3)CC(=O)N2Cc2ccc(F)cc2)cc1 (stereo not given),-6%&-18%
CCOc1cc(C(=O)NC(=S)Nc2cccnc2)cc(OCC)c1OCC,-6%
CCC(CO)Oc1cc(NCc2ccc(Cl)cc2Cl)c2ncn(C(C)C)c2c1 (stereo not given),4%
Cc1ccc(OCc2nnc(SCC(=O)N3CCOCC3)n2C)cc1,9%
COc1ccc(C(=O)COC(=O)CNC(=O)c2ccccc2)cc1F,-17%
CCCCC(=O)c1c(C)cc(C)[nH]c1=O,-4%
COc1ccc(OC)c(N(CC(=O)Nc2cccnc2)S(C)(=O)=O)c1,-2%
O=C(O)c1cc2nc3c(c(C(F)(F)F)n2n1)CCc1ccccc1-3,11%
Cc1cc(-c2ccccc2)nc(-c2ccccc2)c1C,-8%
COc1ccc(-n2c(C)c(C(C)=O)c(C(C)=O)c2C)cc1,6%
N#CC(C#N)=C(Nc1ccccc1)c1ccccc1,-7%
O=C(c1ccco1)N1CCN(Cc2ccccc2Br)CC1,-11%
Cn1cc(C(=O)N/N=C/c2cccc([N+](=O)[O-])c2)c2ccccc21,11%
C=CCOc1ccc(-c2nc3c(c(=O)[nH]c(=O)n3CCC)n2CCCC)cc1,-1%
Cc1ccc(/C(O)=C2\C(=O)C(=O)N(CC(C)O)C2c2ccccn2)cc1 (stereo not given),7%

# Some of these compounds in order of their number in VDR inhibitor, falling:
SMILES,VDR inhibitor
Cn1cc(C(=O)N/N=C/c2cccc([N+](=O)[O-])c2)c2ccccc21,11%
Cc1ccc(C(=O)N/C(=C\c2cccs2)C(=O)NCCCN2CCOCC2)cc1,-5%
O=S(=O)(c1ccc(NC(=S)Nc2ccc(OC(F)F)cc2)cc1)N1CCOCC1,-16%

# Of the compounds above, these contain a furan ring, fused or not:
SMILES,VDR inhibitor
Cc1oc(-c2ccccc2)cc1C(=O)Nc1cccc(/C=C\C(=O)O)c1,-3%
O=C(c1ccco1)N1CCN(Cc2ccccc2Br)CC1,-11%

# (continued)
SMILES,VDR inhibitor
O=C(Nc1ccc(Cl)cc1)c1ccc(-c2ccccn2)s1,11%
CCOC(=O)c1c(NC(=O)CSc2nnc(C)s2)sc2c1CCC(CC)C2 (stereo not given),2%
O=C(Nc1cc(C(F)(F)F)ccc1-n1cncn1)c1cn2ccccc2n1,-14%
Cc1ccc(CNC(=O)N2CCN(c3ccc(C)cc3)CC2)cc1,-11%
NC(=O)Cc1ccc2sc(-c3ccccc3)nc2c1,-14%
O=C(COc1cc(F)ccc1[N+](=O)[O-])NCC1CCCO1 (stereo not given),25%
O=C(Sc1ccccc1)c1cccc(Cn2cc(C(F)(F)F)ccc2=O)c1,-12%
COc1ccc(Cl)cc1S(=O)(=O)N1CCC(C(=O)NC2CC2)CC1,4%
CC(C)NC[C@H](O)c1cc(O)cc(O)c1,9%
O=C(CN1CCCCCC1)Nc1nc2ccccc2s1,15%
COc1cccc(CC(NC(C)=O)C(=O)NC2CCN(C(=O)C3CC3)CC2)c1OC (stereo not given),1%
CC(S)C(=O)NCC(=O)O (stereo not given),1%
NC(=O)c1ccc[n+](CC(=O)NCc2ccc(Cl)cc2)c1,-3%
COc1ccc(NS(=O)(=O)c2ccc(N3CCOCC3)c(NC(=O)c3ccccc3Br)c2)cc1,7%
CCc1nnc(NC(=O)Cc2sc(C)nc2-c2ccc(C)cc2)s1,-11%
Cc1ccc(-c2nn(CC(=O)NCc3ccco3)c(=O)c3ccccc23)cc1,0%
COc1cc(OC)cc(C2=NCCN2)c1,-22%
CC1(C)C2CCC1(C)C(OC(=O)C[n+]1ccccc1N)C2 (stereo not given),-11%
COc1ccc(-c2nnc(SCc3ccccn3)n2C)cc1,4%
O=C(Nc1ccccc1)c1nc2ccccc2s1,6%

# Another view of part of the listing above.
VDR inhibitor,compound
-14%,O=C(Nc1cc(C(F)(F)F)ccc1-n1cncn1)c1cn2ccccc2n1
-11%,Cc1ccc(CNC(=O)N2CCN(c3ccc(C)cc3)CC2)cc1
-14%,NC(=O)Cc1ccc2sc(-c3ccccc3)nc2c1
25%,O=C(COc1cc(F)ccc1[N+](=O)[O-])NCC1CCCO1 (stereo not given)
-12%,O=C(Sc1ccccc1)c1cccc(Cn2cc(C(F)(F)F)ccc2=O)c1

# More compounds:
SMILES,VDR inhibitor
CCN(CC)S(=O)(=O)c1ccc(OC)c(NC(=O)COc2ccc3c(C)cc(=O)oc3c2)c1,-2%
COc1ccc(S(=O)(=O)N2CCN(C(=O)CCCN3C(=O)NC4(CCCC4)C3=O)CC2)cc1,-2%
COc1ccc(NC(=O)C#Cc2ccccc2)cc1OC,14%
Clc1ccc(C2NCCc3sccc32)cc1 (stereo not given),-15%
COc1ccc(-c2nc(CCNC(=O)Cc3ccc(F)cc3)cs2)cc1,-6%
COc1cnc(-c2ccccn2)nc1Oc1ccccc1,21%
CCCOc1ccc(/C(O)=C2/C(=O)C(=O)N(CCCn3ccnc3)C2c2ccc(C)o2)cc1 (stereo not given),-17%
N#Cc1c(-c2ccco2)c2c([nH]c1=S)CCCC2,-10%
COc1cc(OC)c(OC)cc1/C=C1/Cc2ccccc2C1=O,-5%
CCCCCC(=O)Cc1cc(O)cc2c1C(=O)Oc1cc(O)c(C(=O)O)c(CCCCC)c1O2,?
O=C(c1cc(-c2cccc(Cl)c2)on1)N1CCCC1,-7%
NC(=O)c1ccc2c(=O)n3c(-c4cccs4)csc3nc2c1,-5%
NC(=O)c1ncc(C(F)(F)F)cc1Oc1cccnc1,-8%
CCc1ccc(OC(C)C(=O)Nc2ccccc2C(=O)N2CCOCC2)cc1 (stereo not given),-14%
CNC(=O)C[C@@H](N)C(=O)N[C@@H](C(=O)N[C@@H]1C(=O)N2[C@@H]1SC(C)(C)[C@@H]2C(=O)O)c1ccc(O)cc1,3%
CCOc1ccc2nc(NC(=O)C34CC5CC(CC(NC(C)=O)(C5)C3)C4)sc2c1,-1%
O=C(O)CC(NC(=O)C12CC3CC(CC(C3)C1)C2)c1cccc(Cl)c1 (stereo not given),7%
CCOC(=O)c1ccc(NC(=O)CC2COc3ccccc3O2)cc1 (stereo not given),3%
Cc1cc(C)cc(NC2=NCC(=O)N2Cc2ccccc2)c1,0%
Cc1cc2nn(-c3cccc4ccccc34)nc2cc1N,?

# Quoted from the listing.
# Under VDR inhibitor, S=C(NC1CCCCC1)NC1CC2C=CC1C2 (stereo not given) has -13%
# Under VDR inhibitor, CCC(CO)Oc1cc(NCc2ccc(Cl)cc2Cl)c2ncn(C(C)C)c2c1 (stereo not given) has 4%
# Under VDR inhibitor, Cc1ccc(OCc2nnc(SCC(=O)N3CCOCC3)n2C)cc1 has 9%
# Under VDR inhibitor, COc1ccc(-c2nnc(SCc3ccccn3)n2C)cc1 has 4%
# Under VDR inhibitor, O=S(=O)(c1ccc(NC(=S)Nc2ccc(OC(F)F)cc2)cc1)N1CCOCC1 has -16%

# Continued.
SMILES,VDR inhibitor
COc1cccc(CCNC(=O)Cn2c(-c3cccs3)cc3ccccc32)c1,-14%
Cc1ccn2cc(C34CC5CC(CC(C5)C3)C4)nc2c1,1%
CCN1C(=O)/C(=C2/Sc3ccccc3N2CC)S/C1=N\c1ncn[nH]1,-18%
CCOC(=O)c1c(CSc2ccc(C)cc2)n(C)c2cc(Br)c(O)c(CN(C)C)c12,-27%
COc1ccc2c(c1)cc(C(=O)N[C@H](C(=O)N1CCC[C@H]1C(=O)O)C(C)C)n2C,-7%
O=C(COC(=O)c1ccc2c(c1)S(=O)(=O)c1ccccc1C2=O)NC1CC1,-3%
CCCCn1c(N)c(N(CC(C)C)C(=O)C2CC(=O)N(c3ccc(CC)cc3)C2)c(=O)[nH]c1=O (stereo not given),-2%
O=C(CN1CCOCC1)NCc1cc([N+](=O)[O-])ccc1O,-2%
COC(=O)C1=C(C(=O)c2ccccc2)C(c2ccccc2)n2nnnc2N1 (stereo not given),-1%
Cn1c2ccccc2c2cc(/C=N/NC(=O)c3ccc(O)cc3O)ccc21,8%
O=C(Nc1ccc(-c2cnco2)cc1)c1ccccc1,1%
CCNC(=O)CC1C(=O)N(c2ccccc2)C(=O)N1Cc1ccc(F)cc1 (stereo not given),-1%
CCCN1CCN(CCCNC(=O)CN2C(=O)c3cccnc3Oc3ccc(Cl)cc32)CC1,32%[activator]
CCN(CC)C(=O)C1CCC(CNS(=O)(=O)c2cccc3cccnc23)CC1 (stereo not given),14%
O=C1CN(S(=O)(=O)c2cc(Cl)ccc2Cl)CCN1,-14%
CC(=O)Nc1ccc(Sc2ccc([N+](=O)[O-])o2)cc1,?
CN1C(=O)C(CC(=O)NC2CCCCC2)SC1=Nc1ccccc1 (stereo not given),-22%
O=C(c1cc(C(F)(F)F)cc(C(F)(F)F)c1)N1CCC2(CCCN(Cc3ccncc3)C2)CC1,-10%
O=C(CCC(=O)N1CCOCC1)Nc1nnc(C2CCCCC2)s1,13%
Cc1nc(SCC(=O)O)c2oc3ccccc3c2n1,-19%
Cc1ccc(S(=O)(=O)n2nc(C)c(S(=O)(=O)N3CCCCCC3)c2C)cc1C,11%
CCCn1c(C(C)NC(=O)c2ccccc2)nc2ccccc21 (stereo not given),0%
Cc1ccc(C)c(NC(=O)CSc2ncc3c(n2)-c2ccc(Cl)cc2N(C)S3(=O)=O)c1,1%
Cc1ccc(-n2c(SCC(=O)NCC3CCCO3)nc3ccccc3c2=O)cc1C (stereo not given),-3%
O=C(CCn1c(=O)sc2ccccc21)Nc1cccnc1,-10%
COCCNC(=O)CN1C(=O)NC2(CCCCCC2)C1=O,5%
Nc1sccc1C(=O)c1ccccc1,-15%
CCN(CC(=O)Nc1ccc(NC(C)=O)cc1)C(=O)c1cccc(S(=O)(=O)N2CCc3ccccc3C2)c1,-17%
CN(C)S(=O)(=O)c1cccc(NC(=O)CSc2ncnc3ccccc23)c1,27%
Cc1ccc(-c2nnc(CSc3nnc(COc4cccc5ccccc45)n3-c3ccccc3)o2)cc1,16%
Cc1ccc(-n2ncc3c(=O)n(-c4ccc(C)c(C)c4)c(C)nc32)cc1,9%
COc1ccc(CN2CCC(C(=O)c3cccc(Cl)c3)CC2)cc1,-21%
CCN(CC(=O)Nc1ccc(C)c(S(=O)(=O)N(C)C)c1)Cc1ccccc1,-4%
COc1ccc(C2c3[nH]c4ccccc4c3CCN2Cc2cccn2-c2ncccn2)cc1C (stereo not given),3%
COc1cc([C@H]2[C@@H]3CCCC[C@]3(O)CCN2CC(=O)Nc2ccc(C)cc2C)ccc1O,-13%
COc1cccc(C(=O)N=c2sc3cc(S(C)(=O)=O)ccc3n2C)c1,16%
Cc1cccc(NC(=O)/C=C/c2ccc([N+](=O)[O-])s2)c1,?
COc1ccc(Cl)cc1NC(=O)CCc1c(C)nc2c(c1C)c(=O)n(C)c(=O)n2C,-15%
O=c1c2oc3ccccc3c2ncn1Cc1ccccc1F,11%
CCN(CCC#N)c1ccc(/C=N/Nc2nc(C)cc(=O)[nH]2)c(C)c1,-17%
O=C(NCc1cccc(F)c1)c1ccc2nc(CCc3ccccc3)oc2c1,-1%
COc1ccc(/C=N/n2cnnc2SCCO)cc1OC,-15%
O=C(CN1CCOCC1)Nc1ccc([N+](=O)[O-])cc1,-9%
CNS(=O)(=O)c1cn(CC(=O)Nc2ccc(OC)c(Cl)c2)cc1S(=O)(=O)NC,-11%
COc1cc2nc(SCc3ccc(C)cc3)n3nc(CCn4nc(C)cc4C)nc3c2cc1OC,-14%
CCOCc1nnc(NC(=O)c2c(-c3ccccc3)noc2C)s1,?
